HNF4A DNA FP: change in binding of human HNF4A to DNA, primary screen, biochemical, fluorescence polarization, FITC-DNA; 1 h; 360,000 compounds, 0.3% hits; activity change, % at 10 µM; Hepatocyte nuclear factor 4-alpha (Homo sapiens), P41235; in the data active = activity change above about 30%, passing the limit was not always enough;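 also: controls were the assay level and a saturating level of protein; the project sought stronger binding though the title names inhibitors; some compounds called inactive have numbers as strong as hits; positive values seem to mean higher polarization but the record does not say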
Target sequence (P41235 whole entry, looked up): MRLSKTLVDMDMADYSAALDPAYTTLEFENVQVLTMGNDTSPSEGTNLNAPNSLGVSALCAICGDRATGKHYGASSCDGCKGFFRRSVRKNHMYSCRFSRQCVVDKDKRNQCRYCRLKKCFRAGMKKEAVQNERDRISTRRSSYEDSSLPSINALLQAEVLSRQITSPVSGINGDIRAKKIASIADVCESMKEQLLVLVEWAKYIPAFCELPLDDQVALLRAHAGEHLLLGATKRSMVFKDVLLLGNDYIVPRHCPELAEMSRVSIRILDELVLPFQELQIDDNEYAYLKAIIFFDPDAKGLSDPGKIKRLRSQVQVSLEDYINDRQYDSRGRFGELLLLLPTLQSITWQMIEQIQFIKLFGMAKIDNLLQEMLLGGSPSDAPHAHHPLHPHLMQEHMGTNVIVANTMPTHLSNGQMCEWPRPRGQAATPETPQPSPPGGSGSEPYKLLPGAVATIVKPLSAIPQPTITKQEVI
UCH37 inh: inhibitors of human UCH37 deubiquitinase, primary screen, biochemical, Ub-AMC cleavage, fluorescence. Ubiquitin carboxyl-terminal hydrolase isozyme L5 (Homo sapiens), Q9Y5K5. purified proteasome/UCH37. inhibition, % (test concentration not listed). 330,000 compounds, 0.33% hits;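 active = mean of two replicates above 20%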;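 also: 0% = compound-free wells with enzyme and 100% = wells lacking proteasome; stock transfer was 100 nL into about 20 µL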
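Material: human UCH37 enzyme supplied as purified proteasome complex / Amount: 0.15 nM proteasome as dispensed / Buffer or medium: pH 7.4 Tris-HCl (50 mM) with ovalbumin, ATP-MgCl2, DTT / Times: preincubation 30 min, reaction 25 min, room temperature / Technique: AMC fluorescence from Ub-AMC cleavage, excitation 355 nm, emission 460 nm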
Beta2AR agonist: beta2AR agonists driving receptor internalization, primary screen, cell-based, FAP fluorogen, flow cytometry; Beta-2 adrenergic receptor (Homo sapiens), P07550; Am2.2-beta2AR cells; reference of the scale not given here; response, % (no concentration beside the values); 340,000 compounds, 0.43% hits; AID 504454, 2011;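 active = response above a set limit, near 3 SD of response in nonfluorescent compounds, cut at about 42% in these data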;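 also: stock transfer was 100 nL into about 11 µL; a reference agonist was the positive control; negative values mostly stem from fluorescent compounds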
Target sequence (P07550 whole entry, looked up): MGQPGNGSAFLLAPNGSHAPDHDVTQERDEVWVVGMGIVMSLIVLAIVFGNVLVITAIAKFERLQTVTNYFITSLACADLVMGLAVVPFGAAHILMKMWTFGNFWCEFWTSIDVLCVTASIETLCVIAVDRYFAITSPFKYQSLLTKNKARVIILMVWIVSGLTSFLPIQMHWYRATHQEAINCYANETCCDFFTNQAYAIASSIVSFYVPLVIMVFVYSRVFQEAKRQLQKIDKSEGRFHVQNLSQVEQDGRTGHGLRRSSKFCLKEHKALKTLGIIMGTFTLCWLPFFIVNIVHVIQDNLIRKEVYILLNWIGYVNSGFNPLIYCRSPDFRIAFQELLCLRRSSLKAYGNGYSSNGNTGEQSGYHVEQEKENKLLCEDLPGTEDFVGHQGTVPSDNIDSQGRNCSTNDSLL
ALR H2O2 inh: inhibitors of human ALR sulfhydryl oxidase, primary screen, biochemical, H2O2 detection, HRP-luminol luminescence, single point; FAD-linked sulfhydryl oxidase ALR (Homo sapiens), P55789; purified ALR, DTT oxidation; inhibition, % (concentration not given with the values); 290,000 compounds, 3.8% hits; AID 485317, 2010;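 active = mean and each replicate at 75% or more; inconclusive = only one of the two met; inactive = neither met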;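 also: stock transfer was 7.5 nL into about 7.5 µL; 0% = neutral wells and 100% = wells with inactivated enzyme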
Target sequence (P55789 whole entry, looked up): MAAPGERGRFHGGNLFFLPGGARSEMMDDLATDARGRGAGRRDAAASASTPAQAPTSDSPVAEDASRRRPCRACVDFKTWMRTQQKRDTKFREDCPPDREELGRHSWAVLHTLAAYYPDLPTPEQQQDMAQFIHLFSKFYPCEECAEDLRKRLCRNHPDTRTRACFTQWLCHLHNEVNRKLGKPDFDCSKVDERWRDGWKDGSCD
rRNA inh HTS: reduced GFP signal of wild-type E. coli, primary screen, bacterial rRNA inhibitor project, GFP/RFP fluorescence, OD600, single point; E. coli WT GFP vs humanized-ribosome RFP mutants, 24 h; stronger effect = lower value; DMSO median 0, no signal -100; 350,000 compounds, 1.6% hits; GFP signal change (wild-type ribosome), % (test concentration not listed);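 active = significant combined selectivity score with lowered wild-type GFP, culture density cut under 30%, mutant RFP and density less affected; inactive = any of these conditions unmet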; also: one replicate is shown; some compounds called inactive have numbers as strong as hits
FGF22 binding: binders of human FGF22 protein, primary screen, FGF22 synaptogenesis inhibitor project, biophysical, thermal shift, single point; recombinant FGF22 thermal shift, SYPRO orange fluorescence; percent of sucrose octasulfate shift, DMSO zero; calls only at 9.99 µM; 340,000 compounds, 1.5% hits;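 active = melting point raised past a set limit in the mean and every replicate; inconclusive = no clear call; three in four hits are not shown here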
Ecoli growth: E. coli growth inhibition, primary screen, OD600; Escherichia coli growth, 23 h; stronger effect = lower value; OD600 absorbance (concentration not given with the values); 330,000 compounds, 0.21% hits; AID 1053175, 2014;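 active = OD600 absorbance below the run mean of sample wells minus 3.6 SD, in any replicate, cut at about 0.56 in these data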;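 also: stock transfer was 300 nL into about 60 µL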
rRNA inh HTS OD600: also measured in rRNA inh HTS; calls as there; OD600 change, %; measured here: OD600 growth;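 optical density of the mix in the first replicate; 0 = DMSO median and -100 = no signal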
rRNA inh HTS RFP: second read-out of rRNA inh HTS, no call of its own (marks repeat the call); RFP signal change, %; measured here: RFP humanized mutant strains;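 first replicate; 0 = DMSO median and -100 = no signal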
Active calls of the source: *; i = inactive; u = inconclusive; x = not tested or not shown. Some of the compounds tested, so the mix of outcomes need not match the whole.

SMILES	HNF4A DNA FP	UCH37 inh	Beta2AR agonist	ALR H2O2 inh	rRNA inh HTS	rRNA inh HTS OD600	rRNA inh HTS RFP	FGF22 binding	Ecoli growth
c1ccc(Cn2ncc3c(Nc4ccccc4)ncnc32)cc1	-2.0	0.7	-3	9	-27*	-16*	-7.3*	i	0.58
Cc1n[nH]c(C)c1CCc1nc2c3ccccc3nc(SCC(N)=O)n2n1	-1.0	-0.9	-3	x	x	x	x	x	0.71
CN(C(=O)CSc1nc(O)cc(=O)n1C1CCCC1)c1ccccc1	0.8	4.9	4	98*	13	9	2.7	i	0.65
O=C(Nc1cccnc1)c1cc(-c2ccccc2)on1	2.5	0.5	-2	-23	x	x	x	x	0.75
Nc1ccc2nc(CN3CCOCC3)[nH]c2c1	-2.4	4.0	-1	70	x	x	x	x	0.69
Fc1ccc(-c2cc(C(F)(F)F)nc(NCc3cccs3)n2)cc1	3.1	-26	-14	-5	x	x	x	x	0.64
O=C(NCC(c1cccs1)N1CCOCC1)c1ccc(Cl)cc1 (stereo not drawn)	3.1	3.2	-7	-4	3	5	-1.4	i	0.64
COC(=O)Cc1c(C)c2ccc(OCC(=O)N(C)C)cc2oc1=O	-2.8	-328	-12	x	x	x	x	x	0.7
c1n[nH]c(NC2=NCCC2)n1	3.1	5.0	6	-3	x	x	x	x	0.73
CC(=O)Nc1ccc(N=c2cc([N+](=O)[O-])cc(Cl)n2O)cc1	-0.3	7.4	1	-23	0	14	-0.7	i	0.69
CCOC(=O)c1sc2ncn(CC(=O)N(CC)CC)c(=O)c2c1C	0.9	5.1	-9	-12	-5	-5	-0.7	i	0.73
Cc1ccc2cc3c(nc2c1)OCC3	3.0	4.9	3	0	8	2	-0.1	i	0.63
Cn1cc(C(=O)NCc2ccccc2F)cn1	2.4	5.1	0	-4	x	x	x	x	0.67
CCOc1cccc(CN2CCN(c3cccc(C(F)(F)F)c3)CC2)c1O	1.3	1.0	2	4	x	x	x	x	0.65
O=C(CN(C(=O)CNC(=O)c1ccco1)c1ccc(F)cc1)NC1CCCC1	-2.0	2.2	-11	x	1	10	-0.2	i	0.71
NS(=O)(=O)c1ccc(CCNC(=O)Nc2ccc(Cl)c(Cl)c2)cc1	0.7	6.2	10	-2	x	x	x	x	0.69
CCOC(=O)N1CCN(c2c(NCCc3ccc(C)cc3)c(=O)c2=O)CC1	-0.8	7.2	8	-8	8	10	1.0	i	0.77
Cc1cc(SCC(=O)OCC(=O)NCc2ccc3c(c2)OCO3)c(C)cc1Br	-1.4	4.5	-3	-11	-23	-27	-3.6	i	0.67
O=[N+]([O-])c1cccc(S(=O)(=O)N2CCCCC2c2cccnc2)c1 (stereo not drawn)	0.4	0.3	-4	-9	x	x	x	i	0.7
C=C(Cl)COC(=O)[C@H]1C2C=CC(C2)C1C(=O)O (stereo partly drawn)	0.3	0.5	12	16	x	x	x	x	0.75
COc1cc(NC(=O)Cn2cnc3c(NCc4ccccc4)ncnc32)cc(OC)c1OC	0.7	2.9	-1	x	-2	-1	-2.1	i	0.7
O=c1c(/C=N/OCc2ccc(Cl)cc2Cl)c[nH]n1-c1cccc(Cl)n1	-1.8	x	4	98*	-23	-49	-10	i	x
CCOC(=O)CCn1nc(-c2ccc(Cl)cc2)cc1N	-3.5	1.6	7	-1	x	x	x	x	0.68
O=C(c1ccco1)N1N=C(c2ccco2)CC1c1ccc(Cl)cc1Cl (stereo not drawn)	4.4	-60	2	1	8	8	1.6	i	0.72
Oc1ccccc1/C=N/n1c2ccccc2c2ccccc21	-1.3	x	-8	-11	-3	-2	-1.9	i	x
O=C(CSC1CCCCC1)N1CCN(c2ccccc2)CC1	-0.9	1.8	9	98*	x	x	x	x	0.74
Oc1ccc(-c2nc3ccccc3nc2-c2ccccc2)cc1	-0.1	-18	8	60	-41	-66	-3.0	i	0.7
C=CCNC(=S)NNC(=O)c1cccnc1	1.4	1.7	2	17	18	1	-0.6	i	0.72
Cc1ccc(SCc2[nH]nc3c2C2(C(=O)Nc4ccc(F)cc42)C(C#N)=C(N)O3)cc1 (stereo not drawn)	-2.7	2.1	-8	8	x	x	x	x	0.67
COc1ccc(C(=S)N2CCN(c3cccc(Cl)c3)CC2)c(OC)c1	2.6	4.0	5	-2	-2	-12	-7.9	i	0.72
Cc1c(C(=O)OCC(=O)Nc2ccc(N3CCOCC3)cc2)oc2ccccc12	-3.5	0.3	-1	-5	3	5	-1.0	i	0.72
Cc1ccc(-c2nc(-c3cccnc3)no2)c(C)c1	-0.1	1.9	-11	4	x	x	x	x	0.67
COc1cccc(-n2nc3c(-n4ncc(C#N)c4N)nnc(C)c3c2C)c1	5.7	2.9	-3	0	x	x	x	x	0.73
COCC(=O)N1CCC(Oc2ccc(C(=O)NC(C)c3nccs3)cc2)CC1 (stereo not drawn)	-2.7	1.2	17	0	7	6	-1.0	i	0.7
Cn1c(SCc2nc(-c3ccccc3)no2)nnc1-c1cccs1	-2.5	2.6	-31	1	x	x	x	x	0.74
COc1ccc(CC(=O)O)cc1O	0.4	0.3	0	37	9	3	-9.5	i	0.69
Cc1ccc(C)c(OCCCNC2CCCC2)c1C	2.3	3.7	12	-1	11	0	1.4	i	0.69
COc1cccc2sc3ccc(NCCC4CCCN4C)cc3c(=O)c12 (stereo not drawn)	-13	2.2	-85	u	-6	-13	-5.2	i	0.69
CC1CCCN(C(=O)COc2ccc(-c3ccccc3)cc2)C1 (stereo not drawn)	2.3	4.6	-6	-20	-54	-73	-13	i	0.68
O=C(NCCCc1ccccc1)c1ccc(-n2cncn2)c([N+](=O)[O-])c1	2.4	4.5	-11	-11	-2	1	-1.7	i	0.7
COc1cc(NC(=O)CN(C)S(=O)(=O)c2ccc3nc(C)sc3c2)cc(OC)c1	-1.7	4.3	-6	x	-14	-5	6.4	i	0.71
COc1cccc(CN2CCN(Cc3nc(-c4cccc(F)c4F)oc3C)CC2=O)c1	1.2	0.7	-4	-10	5	-5	0.4	i	0.72
COC(=O)c1ccc([C@H]2C=C(C(=O)O)O[C@@H](OCc3ccc(CO)cc3)C2)cc1	-0.3	2.1	1	26	4	12	3.5	i	x
CCCCCCCCC1CC(C(=O)Nc2ccccc2)C(=O)O1 (stereo not drawn)	-3.4	2.6	-1	-2	-2	0	-4.5	i	0.63
O=C(c1ccncc1)N1N=C(C2CC2)CC1(O)C(F)(F)F (stereo not drawn)	3.1	0.9	-2	12	14	8	2.2	i	0.64
O=C1CCC[C@@H]2[C@H]3CCC[N+]4([O-])CCC[C@@H](CN12)[C@@H]34 (stereo partly drawn)	1.0	0.0	-1	-7	13	18	0.8	i	0.7
CC(=O)c1cccc(NC(=O)Nc2ccc3c(c2)N(C)C(=O)CS3)c1	1.2	1.6	14	46	x	x	x	x	0.63
Cc1nc2ccccn2c1C(=O)/C=C/c1ccc(F)cc1	0.2	5.7	7	64	x	x	x	x	0.77
O=C(Nc1cccc(C(=O)O)c1)/C(=C\C=C\c1ccccc1)NC(=O)c1ccccc1	2.1	12	-7	-4	-19*	-6.0*	-3.4*	i	0.68
CC(/C=C1\SC(=O)N(CC(=O)Nc2cccc(O)c2)C1=O)=C\c1ccccc1	-1.7	10	-5	-5	x	x	x	x	0.75

Profiles, quoted from the list. Order of screens: HNF4A DNA FP, UCH37 inh, Beta2AR agonist, ALR H2O2 inh, rRNA inh HTS, rRNA inh HTS OD600, rRNA inh HTS RFP, FGF22 binding, Ecoli growth
COc1cccc(CN2CCN(Cc3nc(-c4cccc(F)c4F)oc3C)CC2=O)c1 as listed: 1.2, 0.7, -4, -10, 5, -5, 0.4, i, 0.72
COC(=O)c1ccc([C@H]2C=C(C(=O)O)O[C@@H](OCc3ccc(CO)cc3)C2)cc1 as listed: -0.3, 2.1, 1, 26, 4, 12, 3.5, i, x

(listing goes on)
SMILES	HNF4A DNA FP	UCH37 inh	Beta2AR agonist	ALR H2O2 inh	rRNA inh HTS	rRNA inh HTS OD600	rRNA inh HTS RFP	FGF22 binding	Ecoli growth
C=CC(=C)CC(NC)c1ccccc1 (stereo not drawn)	28	1.9	2	-13	22	4	-1.1	i	0.73
CC(C)Sc1ncnc2[nH]ncc12	-3.1	0.5	2	x	x	x	x	i	0.61
CCOC(=O)c1ccc(NC(=O)N2CCN(S(C)(=O)=O)CC2)cc1	-3.3	0.5	-6	7	x	x	x	x	0.64
Cc1cccc(C)c1NC(=O)C(C)Sc1nnc(C)n1CC1CCCO1 (stereo not drawn)	-1.6	-0.3	10	x	3	12	-4.1	i	0.7
O=C(COC(=O)c1cc([N+](=O)[O-])ccc1NCc1ccccc1Cl)NCC(F)(F)F	-1.3	4.9	-1	-2	x	x	x	x	0.71
O=C(O)c1nn(-c2ccccc2C(F)(F)F)cc1O	5.6	0.2	2	56	6	4	-6.7	i	0.71
COc1ccc(C(=O)NCc2ccccc2)cc1S(=O)(=O)N1CCCc2ccccc21	-1.8	7.1	-4	7	-21	-37	11	x	0.76
CC(C)c1ccc(-c2nn[nH]n2)cc1	-1.9	-0.8	3	12	x	x	x	x	0.69
Cc1ccccc1CCN(CC(=O)NC1CCCCC1)C(=O)c1csnn1	1.0	5.2	-7	-3	8	7	-6.4	i	0.7
C=C(C)CSc1nc2ncc(Cl)cc2[nH]1	-1.0	2.1	-1	2	x	x	x	x	0.65

Some of these compounds in order of SMILES length, largest number first:
SMILES	HNF4A DNA FP	UCH37 inh	Beta2AR agonist	ALR H2O2 inh	rRNA inh HTS	rRNA inh HTS OD600	rRNA inh HTS RFP	FGF22 binding	Ecoli growth
O=C(COC(=O)c1cc([N+](=O)[O-])ccc1NCc1ccccc1Cl)NCC(F)(F)F	-1.3	4.9	-1	-2	x	x	x	x	0.71
COc1ccc(C(=O)NCc2ccccc2)cc1S(=O)(=O)N1CCCc2ccccc21	-1.8	7.1	-4	7	-21	-37	11	x	0.76
CCOC(=O)c1ccc(NC(=O)N2CCN(S(C)(=O)=O)CC2)cc1	-3.3	0.5	-6	7	x	x	x	x	0.64
Cc1cccc(C)c1NC(=O)C(C)Sc1nnc(C)n1CC1CCCO1 (stereo not drawn)	-1.6	-0.3	10	x	3	12	-4.1	i	0.7
O=C(O)c1nn(-c2ccccc2C(F)(F)F)cc1O	5.6	0.2	2	56	6	4	-6.7	i	0.71
C=C(C)CSc1nc2ncc(Cl)cc2[nH]1	-1.0	2.1	-1	2	x	x	x	x	0.65
CC(C)Sc1ncnc2[nH]ncc12	-3.1	0.5	2	x	x	x	x	i	0.61

(next part)
SMILES	HNF4A DNA FP	UCH37 inh	Beta2AR agonist	ALR H2O2 inh	rRNA inh HTS	rRNA inh HTS OD600	rRNA inh HTS RFP	FGF22 binding	Ecoli growth
CC(SCc1ccccc1)C(=O)N/N=C/c1cccs1 (stereo not drawn)	2.5	x	-8	1	x	x	x	x	x
O=C(NCC(c1ccco1)N1CCc2ccccc2C1)c1cccc([N+](=O)[O-])c1 (stereo not drawn)	-9.7	-1.5	-3	-3	-4	-1	-0.2	x	0.68
O=C(NCc1cccnc1)c1cc(C2CCCCN2C(=O)OCc2ccccc2)on1 (stereo not drawn)	0.5	x	x	x	-6	-10	2.2	i	x
COc1ccccc1C(C)NS(=O)(=O)c1ccc(Cl)nc1 (stereo not drawn)	-3.8	2.8	-3	0	-1	-3	-0.5	i	0.7
